From PubChem
VDR inh = vitamin D3 receptor (human) inhibition; VDR-SRC2-3 peptide fluorescence polarization, 2 h; 400,000 tested, 0.93% active; P11473; Potency, µM, for inactives: max response, negative = inhibition, hits mostly inhibitors; AID 504847; active means well fitted inhibition curve with a large enough effect; inconclusive means small, poorly fitted or top-dose-only effect, or another doubt; inactive means no such curve, though single readings can be large or run the other way; further: series mostly up to about 120 µM
Target sequence (P11473 whole entry, looked up): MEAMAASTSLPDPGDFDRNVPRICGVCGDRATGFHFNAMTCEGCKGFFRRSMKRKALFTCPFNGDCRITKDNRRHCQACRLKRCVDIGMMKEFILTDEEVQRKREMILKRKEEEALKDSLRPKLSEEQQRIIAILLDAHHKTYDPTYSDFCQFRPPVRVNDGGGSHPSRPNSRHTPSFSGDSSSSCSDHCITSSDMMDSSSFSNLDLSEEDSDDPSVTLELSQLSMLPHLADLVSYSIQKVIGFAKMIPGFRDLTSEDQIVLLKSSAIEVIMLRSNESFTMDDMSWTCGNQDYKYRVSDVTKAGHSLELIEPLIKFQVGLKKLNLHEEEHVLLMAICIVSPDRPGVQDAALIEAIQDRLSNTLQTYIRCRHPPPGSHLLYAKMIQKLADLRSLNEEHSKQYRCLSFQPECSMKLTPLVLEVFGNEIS
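Fluorescence polarization assay of small-molecule disruption of VDR binding to coregulator peptide SRC2-3. Compounds and controls pin-transferred, then read after 2 h incubation at ambient room temperature.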
Starred values were filed as active, the others as inactive; ? = inconclusive; & = joins results of further samples; [ ] = dose if it differs, or a comment. On the % scale 0 is the no-effect control and ±100 the full control effect; potency means the concentration at half of the fitted maximal effect. This is a subset; rates above refer to the full screens.

SMILES	VDR inh
NC(=S)NNC(=O)Nc1cccc(Cl)c1	-10%
COC(=O)[C@@]1(Cc2ccccc2)[C@H]2C(=O)N(Cc3ccccc3)C(=O)[C@H]2[C@H]2CN=C(SCc3ccc(C)cc3)N21	6%
Cn1nc(C(=O)Nc2cccc(S(N)(=O)=O)c2)c2ccccc2c1=O	8%
Cn1nc(C(=O)OCc2ccccc2F)c2ccccc2c1=O	-8%
NNC(=O)CNC(c1ccccc1)c1cc(Br)ccc1NC(=O)c1ccc(Br)cc1 (stereo not given)	-9%
CS(=O)(=O)N1CCC2(CCCN(Cc3ccccc3)C2)CC1	7%
CNC(=O)c1ccc2nc(-c3cccc(C)c3)c(-c3cccc(C)c3)nc2c1	-9%
N#C/C(=C/c1ccccc1Cl)c1nc(-c2cc3ccccc3oc2=O)cs1	1%
N#Cc1cccc(-c2nc3cnc(N4CCOCC4)nc3n(C[C@H]3CCCO3)c2=O)c1	7%
Clc1ccc(C2CC(c3cccs3)n3ncnc3N2)cc1Cl (stereo not given)	-13%
CSc1cccc(NC(=O)C2CCCN(S(=O)(=O)c3cnc[nH]3)C2)c1 (stereo not given)	-14%
CC(C)(C)C1CCC(=O)N(CCC#N)CC1 (stereo not given)	3%
CCC(C)NCCOCCSc1ccc(Cl)cc1 (stereo not given)	4%
O=C1CCC[C@@H]2Cc3nc4ccc(O)cc4cc3[C@@H]3CCN1[C@H]23	1%
COc1cccc(OC)c1C(=O)NC(=S)NNC(=O)[C@H]1C[C@@H]1c1ccccc1	-5%
COc1cccc(NC(=O)CCN2C(=O)c3ccccc3S2(=O)=O)c1	5%
CCOc1ccccc1N1CCN(C(=O)c2cc3c(C)cc(C)cc3[nH]2)CC1	35%[activator]
COc1ccc(NC(=O)CN2CCC3(O)CCCCC3C2c2cc(OC)ccc2OC)cc1 (stereo not given)	-6%
O=C(NC1CCCCC1)NC1CC2CCC(C1)N2C(=S)NCc1ccco1 (stereo not given)	13%
CCOC(=O)c1c(N)c(C#N)c2n1CCCC2	-5%
COc1ccccc1N1CCN(S(=O)(=O)c2ccc(-c3cc(C(F)(F)F)on3)s2)CC1	3%
Cn1cccc1C(=O)N1CCC2(CC1)CCN(c1ccncc1)CC2	-1%
O=C(CN(C(=O)c1csnn1)c1ccc(F)c(Cl)c1)NC1CCCC1	-8%
Cc1cccc(NC(=S)N2CCC(NC(=O)c3ccco3)CC2)c1	-1%
Cn1c(COc2ccc([N+](=O)[O-])cc2)nnc1SCC(N)=O	-12%
SMILES	VDR inh
O=C(Nc1cccc(C(F)(F)F)c1)c1cc2ncc(Br)cn2n1	10%
O=C([C@H](Cc1ccccc1)N1C(=O)c2ccccc2C1=O)N1CCOCC1	-12%
CCn1c(SC(C)C)nnc1C1CCN(S(=O)(=O)c2ccc(OC)cc2)CC1	0%
O=C1C2C3c4ccccc4C(c4ccccc43)[C@@H]2C(=O)N1c1nc(-c2ccccc2)cs1 (stereo not given in full)	-1%
COCc1c(C(=O)N2CCN(Cc3ccc4c(c3)OCO4)CC2)oc2ccccc12	1%
CCOc1cc(C(=O)N2CCN(c3ccccn3)CC2)cc(OCC)c1OCC	-7%
COc1ccc(NS(=O)(=O)c2csc(C(=O)N3CCCC3)c2)cc1	-18%
CC(C)(C)c1ccc(OCCCN2CCCC2)cc1	-6%
Cc1ccc(C)c(Cn2nnc3c(=O)[nH]c(C4CCCN(S(=O)(=O)Cc5ccccc5)C4)nc32)c1 (stereo not given)	4%
O=c1/c(=C/c2ccccn2)sc2n1CN(c1ccccc1)CN=2	-18%
CN(CC(=O)NCC1COc2ccccc2O1)S(=O)(=O)c1ccc(Cl)cc1 (stereo not given)	3%
CC(=O)c1c(C)nn(C(=O)N2CCOCC2)c1C	7%
O=C1COC(c2ccccc2)C2CCCCN12 (stereo not given)	-11%
Cc1ccccc1-n1c(=O)cc(NCc2ccc3c(c2)OCO3)[nH]c1=O	6%
COc1ccc(/C=C/C(=O)c2cc3c(cc2N)OCO3)cc1	7%
CC(C)NC(=O)COC(=O)c1ccc(S(=O)(=O)N2CCCC2)cc1	29%
O=S(=O)(Nc1cccc(-n2cnnn2)c1)c1cc(Cl)ccc1Cl	-5%
CCN(C(=O)CSc1nc(-c2cccs2)nc2ccccc12)C1CCS(=O)(=O)C1 (stereo not given)	-22%
C[C@H]1[C@H](C)CC[C@]2(C)CC[C@]3(C)C(=CC(=O)C4[C@@]5(C)CC[C@H](O)C(C)(C)C5CC[C@]43C)[C@H]12 (stereo not given in full)	6%
COc1ccc(NC(=O)C2(S(=O)(=O)c3ccc(C)cc3)CC2)c(OC)c1	?
CC(C)Oc1nc(-c2ccccc2O)nc2ccccc12	8%
COc1ccc(OC)c(C(=O)c2ccc([N+](=O)[O-])cc2)c1	-5%
COc1ccc(NC2=CC(c3cccc(OC)c3)N(c3ccc(OC)cc3)C2=O)cc1 (stereo not given)	-8%
Cc1nc2sccc2c(=O)n1-c1cccc(Cl)c1	1%
COc1ccc2cc3c(N)nn(C(=O)c4ccc(F)cc4)c3nc2c1	8%

17 successive compounds from above, for reference:
SMILES	VDR inh
O=C1C2C3c4ccccc4C(c4ccccc43)[C@@H]2C(=O)N1c1nc(-c2ccccc2)cs1 (stereo not given in full)	-1%
COCc1c(C(=O)N2CCN(Cc3ccc4c(c3)OCO4)CC2)oc2ccccc12	1%
CCOc1cc(C(=O)N2CCN(c3ccccn3)CC2)cc(OCC)c1OCC	-7%
COc1ccc(NS(=O)(=O)c2csc(C(=O)N3CCCC3)c2)cc1	-18%
CC(C)(C)c1ccc(OCCCN2CCCC2)cc1	-6%
Cc1ccc(C)c(Cn2nnc3c(=O)[nH]c(C4CCCN(S(=O)(=O)Cc5ccccc5)C4)nc32)c1 (stereo not given)	4%
O=c1/c(=C/c2ccccn2)sc2n1CN(c1ccccc1)CN=2	-18%
CN(CC(=O)NCC1COc2ccccc2O1)S(=O)(=O)c1ccc(Cl)cc1 (stereo not given)	3%
CC(=O)c1c(C)nn(C(=O)N2CCOCC2)c1C	7%
O=C1COC(c2ccccc2)C2CCCCN12 (stereo not given)	-11%
Cc1ccccc1-n1c(=O)cc(NCc2ccc3c(c2)OCO3)[nH]c1=O	6%
COc1ccc(/C=C/C(=O)c2cc3c(cc2N)OCO3)cc1	7%
CC(C)NC(=O)COC(=O)c1ccc(S(=O)(=O)N2CCCC2)cc1	29%
O=S(=O)(Nc1cccc(-n2cnnn2)c1)c1cc(Cl)ccc1Cl	-5%
CCN(C(=O)CSc1nc(-c2cccs2)nc2ccccc12)C1CCS(=O)(=O)C1 (stereo not given)	-22%
C[C@H]1[C@H](C)CC[C@]2(C)CC[C@]3(C)C(=CC(=O)C4[C@@]5(C)CC[C@H](O)C(C)(C)C5CC[C@]43C)[C@H]12 (stereo not given in full)	6%
COc1ccc(NC(=O)C2(S(=O)(=O)c3ccc(C)cc3)CC2)c(OC)c1	?

Going on with the list:
SMILES	VDR inh
FC(F)Oc1ccc(/C=N/c2c(-c3ccc(OC(F)F)cc3)nc3n2CCS3)cc1	?
O=C(c1cccc([N+](=O)[O-])c1)N1CC2C3C=CC(C3)C2C1 (stereo not given)	-12%
Cc1cccc(C(=O)OCc2cc(=O)oc3c(C)c(C)ccc23)c1O	10%
COc1ccc(N2CCOCC2)c(NC(=O)COc2cccc(C)c2)c1	11%
O=C1CCCC(O)=C1N=Nc1cccc(C(=O)O)c1	4%
CC(C)(C)OC(=O)N1CCC(N2CCN(Cc3ccccc3)C(=O)C2=O)CC1	13%
O=S(=O)(c1ccccc1)c1nc(-c2cccs2)oc1NCCCn1ccnc1	-2%
CCOC(=O)c1c(NC(=O)C2CCCO2)sc(C(=O)OC(C)(C)C)c1C (stereo not given)	?
COc1ccc(OC)c(N(CC(=O)Nc2ccccc2C(=O)NCc2ccco2)S(C)(=O)=O)c1	-3%
COc1cc(/C=N/NC(=O)CC#N)cc(Br)c1O	?
Fc1ccc(-c2cnc[nH]2)cc1	-21%
CCCCCCCCCCCC(=O)N(CCO)CCO	-11%
COc1ccc(CCNc2c([N+](=O)[O-])c(=O)oc3ccccc23)cc1OC	-3%
COc1ccccc1NC(=O)CN(c1ccccc1)S(=O)(=O)c1ccccc1	6%
Cc1ccc(S(=O)(=O)N(C)C)cc1NC(=O)C(C)OC(=O)c1cc[n+]([O-])cc1 (stereo not given)	-7%
Cc1cccc(CS(=O)(=O)Cc2ccc(C(=O)NCc3ccc(Cl)cc3)o2)c1	12%
Cc1cc(C)nc(/N=C2\NC(=O)CC(C(=O)O)N2c2ccc(Cl)cc2)n1 (stereo not given)	-12%
CC1(NC(=S)Nc2ccc(NC(=S)NC3(C)CCS(=O)(=O)C3)cc2)CCS(=O)(=O)C1 (stereo not given)	-2%
Cc1cc(C(=O)CSc2n[nH]c(N)n2)c(C)n1-c1cccc(F)c1	-5%
COc1ccc(-c2ncccc2O)cc1	17%
Cc1cc(OCC(=O)N2CCC(C(=O)O)CC2)c2c(C)cc(=O)oc2c1	0%
Cc1ccccc1NC(=O)c1ccc(CN2CCc3ccccc3C2)cc1	11%
Cc1cc(OCCCCNC(C)C)cc(C(C)C)c1	3%
CC(=O)NC(c1ccc2ccccc2c1)c1ccc2cccnc2c1O (stereo not given)	4%
COC(=O)/C(C#N)=C\c1c(OC)[nH]c2ccccc12	-10%
SMILES	VDR inh
Oc1c(C(c2ccccc2Cl)N2CCOCC2)sc2nc(-c3ccco3)nn12 (stereo not given)	11%
COc1ccc(CNS(=O)(=O)NCc2ccc(C)cc2)cc1OC	1%
CCOc1ccc(S(=O)(=O)NCCC(=O)NCC(c2ccco2)N2CCCCC2)cc1 (stereo not given)	7%
O=C(NCc1ccncc1)C(=O)NCc1ccncc1	-14%
COC(=O)/C=c1/sc2n(c1=O)CCN=2	-5%
O=C(O)c1cc(C(=O)O)cc(N2C(=O)CSC2=S)c1	-2%
O=C(Cn1c(NCCO)nc2ccccc21)NCC(F)(F)F	-5%
CC(NO)/C(=N\O)c1cccs1 (stereo not given)	16%
O=C(Cc1cnn(-c2ccccc2)c1)c1ccc(O)c(O)c1O	-2%
CC1=C(C(=O)Nc2ccccc2C(=O)N2CCC(C)CC2)SCCO1	12%
COc1ccc(C2Nc3ccccc3C(=O)N2c2ccc(C)cc2)cc1COc1ccccn1 (stereo not given)	-23%
O=C(CN1C(=O)NC2(CCCC2)C1=O)OCCOc1cccc(Cl)c1	-6%
COc1cccc(NC(=O)c2cc3ccccc3o/c2=N\O)c1	-24%
O=C(Nc1ccc(Cl)c(S(=O)(=O)N2CCOCC2)c1)c1cccs1	-7%
O=c1cc(O)nc(SCc2ccccc2)n1-c1ccc(Cl)cc1	7%
CC(C(=O)Nc1ccc(O)c(C(=O)O)c1)N1C(=O)/C(=C/c2cccs2)SC1=S (stereo not given)	?
O=C(c1cccc(-n2cccc2)c1)N1CCN(S(=O)(=O)c2ccccc2)CC1	-15%
CC(C)N(C)CCOC(=O)C1COc2ccccc2O1 (stereo not given)	-22%
NC(=O)C[C@H](NC(=O)Cc1ccc(O)cc1O)C(=O)O	-6%&-8%&3%
CC(O)(CS(=O)(=O)Cc1ccccc1)c1ccccc1 (stereo not given)	10%
N=C1c2ccccc2CN1NC(=O)COc1ccc(Cl)cc1	?
COC(=O)c1ccc(NC(=O)CC2C(=O)N(c3cccc(OC)c3)C(=O)N2Cc2cccc(OC)c2)cc1 (stereo not given)	2%
CC(C)[C@H]1C(=O)Nc2ccccc2N1C(=O)N[C@@H](Cc1ccccc1)C(=O)N[C@@H](C(=O)O)c1ccccc1	-25%
CN(C(=O)c1ccc(NC(=O)Cc2ccc(NC(=O)C3CCN(C(=O)C4CCC4)CC3)cc2)cc1)C1CCCC1	-7%
COc1ccc(/C=C2\CCc3ccccc3C2=O)cc1Cn1nc(C)cc1C	-23%
SMILES	VDR inh
Cc1ccc(CNC(=O)c2ccc(NC(=O)C3=CSCCO3)cc2)cc1	-2%
O=C(Nc1nc2n(n1)C(c1ccc(Cl)cc1)C=C(c1ccccc1)N2)c1ccco1 (stereo not given)	-2%
Cc1cccc(-n2nnnc2S(C)(=O)=O)c1	?
COCC(=O)n1cc(C(=O)OC)c2ccccc21	15%
O=C1O[C@H](CN2CCOCC2)CN1/N=C\c1ccc([N+](=O)[O-])o1	28µM*
N#CCCN1CCCc2cc(N=Nc3ccc(C(F)(F)F)cc3)ccc21	6%
COC(=O)c1ccc(Cl)cc1NC(=O)Nc1nnc(N(C)Cc2ccccc2)s1	13%
CC(/C=N/n1c(-c2n[nH]c3c2CCC3)n[nH]c1=S)=C\c1ccco1	-4%
O=C(CN1C(=O)c2cccc3cccc1c23)NC1CCCC1	7%
O=C(COC(=O)C1CC2CCCC(C1)C2=O)NNC(=O)c1ccc([N+](=O)[O-])cc1 (stereo not given)	-8%
COc1ccccc1-n1cnnc1SC(C)C(=O)Nc1ccc(NC(C)=O)cc1 (stereo not given)	-6%
Cc1ccc(C)c(N2CCN(S(=O)(=O)c3c(C)noc3/C=C/N(C)C)CC2)c1	-1%
O=C(Nc1cccc(S(=O)(=O)NC2=NCCCCC2)c1)c1cccnc1Cl	-10%
COc1cc2nc(NCCc3cccc(C)c3)n3nc(-c4ccccc4)nc3c2cc1OC	-15%
Cc1ccc(SCC(=O)NN=C2CCN(C)CC2)cc1	5%
Cc1ccccc1S(=O)(=O)N1[C@@H](c2ccc(F)cc2)C(C(=O)O)=CC[C@H]1c1ccc(Cl)cc1	-28%
C=CCN(C(=O)CCS(=O)(=O)c1cccc2nsnc12)c1ccccc1	-13%
CCCn1c(SCC(=O)N2CCc3ccccc32)n[nH]c1=O	-16%
Cc1nn2c(C)c(C(=O)NC(C)(C)C)cnc2c1-c1ccc(F)cc1	1%
O=C(CSc1nc(=O)n(Cc2ccco2)c2c1CCC2)NCc1ccccc1	0%
O=C(Nc1nccs1)c1ccc[nH]c1=O	?
COc1ccc(CCN(C)S(=O)(=O)c2ccc(Cl)nc2)cc1OC	-4%
CC[C@@]1(C(=O)OC)N[C@H](CN(C)S(=O)(=O)c2ccccc2)[C@@H]2C(=O)N(Cc3ccccc3)C(=O)[C@@H]21	3%
CCc1cc(=O)oc2cc(C)cc(OCC(=O)NC3CCN(Cc4ccccc4)CC3)c12	-14%
COc1cc2[nH]c(=S)n(C3CCCC3)c(=O)c2cc1OC	1%
CCCC(=O)NCn1nnc(-c2ccc(Cl)cc2)n1	-6%
